Screens deposited in PubChem BioAssay by several laboratories.
HNF4A DNA FP: change in binding of human HNF4A to DNA, primary screen, biochemical, fluorescence polarization, FITC-DNA; 1 h; Hepatocyte nuclear factor 4-alpha (Homo sapiens), P41235; AID 1224865, 2016; activity change, % at 10 µM; 360,000 tested, 0.3% active; in the data active = activity change above about 30%, passing the limit was not always enough;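 also: controls were the assay level and a saturating level of protein; the project sought stronger binding though the title names inhibitors; some compounds called inactive have numbers as strong as hits; positive values seem to mean higher polarization but the record does not say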
ALR inh: inhibitors of human ALR sulfhydryl oxidase, primary screen, biochemical, H2O2 detection, HRP-luminol luminescence, single point. purified ALR, DTT oxidation. 290,000 tested, 3.8% active. inhibition, % (concentration not given with the values). FAD-linked sulfhydryl oxidase ALR (Homo sapiens), P55789;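 active = mean and each replicate at 75% or more; inconclusive = only one of the two met; inactive = neither met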;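 also: stock transfer was 7.5 nL into about 7.5 µL; 0% = neutral wells and 100% = wells with inactivated enzyme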
FGF22 binding: binders of human FGF22 protein, primary screen, FGF22 synaptogenesis inhibitor project, biophysical, thermal shift, single point. Fibroblast growth factor 22 (Homo sapiens), Q9HCT0. recombinant FGF22 thermal shift, SYPRO orange fluorescence; percent of sucrose octasulfate shift, DMSO zero. calls only at 9.99 µM. 340,000 tested, 1.5% active;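 active = melting point raised past a set limit in the mean and every replicate; inconclusive = no clear call; three in four hits are not shown here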
UCH37 inh: inhibitors of human UCH37 deubiquitinase, primary screen, biochemical, Ub-AMC cleavage, fluorescence. 330,000 tested, 0.33% active. AID 588478, 2011. Ubiquitin carboxyl-terminal hydrolase isozyme L5 (Homo sapiens), Q9Y5K5. inhibition, % (test concentration not listed). purified proteasome/UCH37;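 active = mean of two replicates above 20%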;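 also: 0% = compound-free wells with enzyme and 100% = wells lacking proteasome; stock transfer was 100 nL into about 20 µL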
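Reagent: Ub-AMC substrate; assay system: Proteasome-associated human UCH37 deubiquitinase; controls: no-proteasome and no-compound wells; read-out: % inhibition of Ub-AMC cleavage fluorescence; timing: 30 min preincubation with enzyme, 25 min cleavage at room temperature; signal: AMC fluorescence from Ub-AMC cleavage, excitation 355 nm, emission 460 nm; buffer or medium: Tris-HCl pH 7.4 plus ovalbumin, ATP-MgCl2, DTT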
LANA-H2A inh: blockers of LANA interaction with H2A/H2B – biochemical, FP readout, HTS, primary screen | cell-free LANA-H2A/H2B peptide, fluorescence polarization | inhibition, % (test concentration not listed) | 320,000 tested, 0.6% active | AID 2629, 2010; in the data active = inhibition mostly above about 10%, no sharp cut-off; inactive = mostly below about 6.7%;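 also: stock transfer was 7.5 nL into about 10 µL; 0% = median of vehicle wells and 100% = median of positive control wells; one replicate is shown; the record names a cut of 25% in any replicate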
Target sequence (Q9QR71 whole entry, looked up): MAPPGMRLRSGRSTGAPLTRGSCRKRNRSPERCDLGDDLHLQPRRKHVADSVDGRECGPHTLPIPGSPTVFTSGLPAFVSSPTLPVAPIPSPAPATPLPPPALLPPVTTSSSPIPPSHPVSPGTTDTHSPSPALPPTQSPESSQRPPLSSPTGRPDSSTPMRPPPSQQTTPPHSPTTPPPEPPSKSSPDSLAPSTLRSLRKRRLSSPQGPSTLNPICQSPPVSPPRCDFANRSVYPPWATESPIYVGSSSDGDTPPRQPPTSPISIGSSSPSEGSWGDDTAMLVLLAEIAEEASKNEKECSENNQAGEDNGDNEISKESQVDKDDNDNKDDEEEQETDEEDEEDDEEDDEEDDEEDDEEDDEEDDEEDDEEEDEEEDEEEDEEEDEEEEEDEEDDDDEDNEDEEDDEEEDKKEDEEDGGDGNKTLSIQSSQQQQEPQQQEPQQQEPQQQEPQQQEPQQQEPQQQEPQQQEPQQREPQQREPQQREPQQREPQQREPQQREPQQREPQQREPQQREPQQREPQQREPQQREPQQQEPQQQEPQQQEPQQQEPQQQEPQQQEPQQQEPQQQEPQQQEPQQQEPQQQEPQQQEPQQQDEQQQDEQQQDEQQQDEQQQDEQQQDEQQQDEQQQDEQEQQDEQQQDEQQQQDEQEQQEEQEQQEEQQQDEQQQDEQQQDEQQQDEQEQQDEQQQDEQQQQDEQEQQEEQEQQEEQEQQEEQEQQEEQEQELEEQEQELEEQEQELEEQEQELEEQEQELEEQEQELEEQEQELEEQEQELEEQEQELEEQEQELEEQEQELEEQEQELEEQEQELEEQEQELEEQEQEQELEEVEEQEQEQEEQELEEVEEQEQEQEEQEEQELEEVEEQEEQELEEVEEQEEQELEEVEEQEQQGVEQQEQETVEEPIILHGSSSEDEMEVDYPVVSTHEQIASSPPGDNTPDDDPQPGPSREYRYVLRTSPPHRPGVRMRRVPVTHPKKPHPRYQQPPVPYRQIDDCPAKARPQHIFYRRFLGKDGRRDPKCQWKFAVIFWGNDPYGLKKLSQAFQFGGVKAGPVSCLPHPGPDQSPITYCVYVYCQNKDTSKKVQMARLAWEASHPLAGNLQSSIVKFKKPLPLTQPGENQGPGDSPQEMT
E coli growth: E. coli growth inhibition, primary screen, OD600 | Escherichia coli growth, 23 h; hits give low values | OD600 absorbance (no concentration beside the values) | 330,000 tested, 0.21% active | AID 1053175, 2014;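 active = OD600 absorbance below the run mean of sample wells minus 3.6 SD, in any replicate, cut at about 0.56 in these data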;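 also: stock transfer was 300 nL into about 60 µL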
B2AR ag: beta2AR agonists driving receptor internalization, primary screen, cell-based, FAP fluorogen, flow cytometry | Beta-2 adrenergic receptor (Homo sapiens), P07550 | response, % (no concentration beside the values) | AID 504454, 2011 | Am2.2-beta2AR cells; reference of the scale not given here | 340,000 tested, 0.43% active;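 active = response above a set limit, near 3 SD of response in nonfluorescent compounds, cut at about 42% in these data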;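 also: stock transfer was 100 nL into about 11 µL; a reference agonist was the positive control; negative values mostly stem from fluorescent compounds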
An asterisk follows results filed as active; i = inactive; ? = inconclusive; . = no result given. An excerpt; count on the stated rates, not on these rows.

SMILES | HNF4A DNA FP | ALR inh | FGF22 binding | UCH37 inh | LANA-H2A inh | E coli growth | B2AR ag
c1ccc(C(c2ccccc2)N2CCN(c3nc4ccccc4n4cnnc34)CC2)cc1 | . | -3 | . | -16 | -3.2 | 0.77 | .
OCC[C@H]1C[C@H](O)[C@@H](O)[C@@]2(CCCc3ccccc3O2)O1 | 1.2 | 59 | i | -1.6 | 3.2 | . | 1
CCOC(=O)C(=NC1CCS(=O)(=O)C1)NNc1cc(Cl)ccc1Cl (centres undefined) | 3.8 | ? | i | 0.8 | 1.1 | 0.73 | 3
CCCn1c2c(c(O)c(C(=O)Nc3ccc(OCC)cc3)c1=O)CCCC2 | 1.0 | -12 | . | 1.7 | -0.4 | 0.72 | 10
Cc1nc(CN(C)C(=O)c2cc(COc3c(F)cccc3F)on2)cs1 | 0.1 | -9 | i | 0.3 | -3.2 | 0.71 | -10
CC(C)(C)OC(=O)C[C@H]1C/C=C\C[C@H](CC(=O)N(CCO)Cc2ccccc2)C(=O)NCCOC1=O | -4.7 | 2 | i | 2.0 | -0.6 | . | -3
CN1CCNC(=O)C1CC(=O)O (centres undefined) | -0.9 | -6 | . | 1.5 | -1.4 | 0.71 | -8
CC1(C)CC(=O)C=C(c2cccnc2)C1 | 5.3 | . | . | 1.9 | -1.2 | 0.69 | -5
Oc1ccc(/C=N/Nc2ccnc3cc(Cl)ccc23)cc1O | -3.3 | 67 | i | . | 4.9 | . | 10
Cc1ccc(C)c(NC(=O)CN(C)C(=O)C2COc3ccccc3O2)c1 (centres undefined) | 0.2 | -2 | i | 2.0 | 0.5 | 0.68 | -1
COc1ccc(N2C(=O)[C@@H]3[C@H](C2=O)[C@H]2C=CC=NN2[C@@H]3C(=O)Nc2ccc(Cl)cc2)cc1 | 0.6 | -1 | i | 3.4 | 0.8 | 0.67 | 6
C[C@@H]1CN([C@@H](C)CO)C(=O)c2cc(N(C)C)ccc2O[C@@H]1CN(C)Cc1ccncc1 | -4.6 | 73 | i | 3.3 | -0.5 | 0.78 | 30
COc1ccc(-n2cc(CN(C)Cc3n[nH]c(=O)[nH]3)c(-c3cccc(F)c3)n2)cc1 | 4.2 | 20 | i | -4.0 | -3.5 | 0.61 | -4
N#C/C(=C\N1CCN(Cc2ccc3c(c2)OCO3)CC1)c1nc2ccccc2s1 | 30* | -5 | . | 5.0 | -7.3 | 0.74 | -371
NS(=O)(=O)c1ccc(CCNC(=O)c2ccc(OCC3CCCO3)cc2)cc1 (centres undefined) | -0.6 | 1 | i | -2.6 | 2.8 | 0.65 | 0
CNc1ncnc2sc(-c3ccccc3)cc12 | 2.0 | . | i | -66 | 4.2 | 0.65 | 3
CC(C)N1CCN(Cc2ccc(C#CC(C)(C)O)s2)CC1CCO (centres undefined) | 0.8 | -2 | i | 2.5 | 3.1 | 0.65 | 4
CC(=O)Oc1ccc(N2C(=O)C3C4C=CC(CC4)C3C2=O)cc1[N+](=O)[O-] (centres undefined) | -2.6 | -2 | i | 0.6 | 5.9 | 0.71 | 1
COc1ccc(C(C)NC(=O)Cc2cccs2)cc1 (centres undefined) | -0.6 | -3 | i | 1.1 | -2.7 | 0.65 | -6
CCCn1c(=O)c2c(C(=O)OCC)cc(-c3ccco3)nc2n(CCC)c1=O | 7.8 | . | i | -497 | . | 0.67 | 9
N#CC1(c2ccccc2)CCN(S(=O)(=O)c2ccc(OC(F)(F)F)cc2)CC1 | 5.4 | 1 | . | 6.7 | 3.7 | 0.67 | -2
CCC(C)[C@H](NC(=O)NCc1ccc(Cl)cc1)C(=O)O (some centres undefined) | -1.7 | -3 | i | -0.2 | 5.8 | 0.7 | 6
c1ccc(OCc2nnc3sc(-c4cccs4)nn23)cc1 | -1.8 | . | . | -1.2 | 1.8 | 0.66 | -16
CC1CCC2(CC1)NC(=O)N(CC(=O)Nc1ccc3c(c1)OCO3)C2=O (centres undefined) | -3.9 | -5 | i | . | -3.6 | . | 1
COc1ccc2oc(=O)c(C(=O)NCc3ccc(C)cc3)cc2c1 | 2.8 | . | i | -85 | 3.3 | 0.69 | -5

Full records from above:
Profile of CCCn1c(=O)c2c(C(=O)OCC)cc(-c3ccco3)nc2n(CCC)c1=O : HNF4A DNA FP: 7.8; ALR inh: .; FGF22 binding: i; UCH37 inh: -497; LANA-H2A inh: .; E coli growth: 0.67; B2AR ag: 9
Profile of CC1(C)CC(=O)C=C(c2cccnc2)C1 : HNF4A DNA FP: 5.3; ALR inh: .; FGF22 binding: .; UCH37 inh: 1.9; LANA-H2A inh: -1.2; E coli growth: 0.69; B2AR ag: -5
Profile of CCCn1c2c(c(O)c(C(=O)Nc3ccc(OCC)cc3)c1=O)CCCC2 : HNF4A DNA FP: 1.0; ALR inh: -12; FGF22 binding: .; UCH37 inh: 1.7; LANA-H2A inh: -0.4; E coli growth: 0.72; B2AR ag: 10

Remaining list, next part.
SMILES | HNF4A DNA FP | ALR inh | FGF22 binding | UCH37 inh | LANA-H2A inh | E coli growth | B2AR ag
CC(C)CC(NC(=O)C1CCCCC1)C(=O)NCc1ccccn1 (centres undefined) | 1.7 | -6 | . | -0.4 | 4.4 | 0.71 | 3
COc1ccccc1NC(=O)C(C)Sc1nccn1C (centres undefined) | -0.9 | 5 | i | 0.8 | 0.1 | 0.69 | 1
N#CCCN(C(=O)COC(=O)Cc1c[nH]c2ccccc12)c1ccccc1 | -0.1 | 5 | i | 4.5 | 2.9 | 0.69 | -10
COc1ccc(Oc2nccc(-c3ccc(Cl)cc3)n2)cc1 | -1.4 | -5 | . | 0.4 | 1.8 | 0.71 | -9
COc1ccc(Cn2c(CO)cnc2SCC(=O)Nc2cccc(NC(C)=O)c2)cc1 | 5.8 | 99* | i | 0.8 | -3.6 | 0.65 | -11
CC1Cc2ccccc2N1S(=O)(=O)c1cccc(C(=O)NC2CC2)c1 (centres undefined) | -0.8 | -3 | . | 0.4 | 6.0 | 0.7 | -9
O=C(O)CSCC(=O)NCc1ccc(Cl)cc1 | -3.3 | -6 | i | 1.2 | -12 | 0.68 | -2
COc1ccccc1Oc1ccccc1C(=O)O | 0.4 | -13 | . | 0.8 | 1.6 | 0.62 | 13
CCOc1cc(NC(=O)c2cccs2)c(OCC)cc1NC(=O)CCC(=O)NCC1CCCO1 (centres undefined) | 1.8 | -12 | i | 6.4 | 4.4 | 0.68 | -4
CCC(C(=O)NC1CCCC1)N(C(=O)c1snc(C(N)=O)c1N)c1ccc(OC)c(OC)c1 (centres undefined) | 0.0 | . | i | -2.6 | 2.0 | 0.72 | -14
O=C(CSc1c[nH]c2ccccc12)NCc1ccc2c(c1)OCO2 | -3.2 | 98* | i | 3.0 | -2.0 | 0.69 | 6
C/C(=N\N=C(/N)SC1CC(=O)N(c2ccc(Cl)cc2)C1=O)c1cccs1 (centres undefined) | 2.6 | -10 | . | . | -5.8 | . | 6
CN/N=C(\Cc1nc2ccccc2[nH]1)c1ccc([N+](=O)[O-])cc1 | -4.5 | . | i | . | . | . | 22
CC12CCC(C(=O)N(CC(O)CN3CCCCCC3)C1=O)C2(C)C (centres undefined) | 0.9 | . | i | -1.2 | 8.2 | 0.69 | 0
COC(=O)c1ccc(NC(=O)CCS(=O)(=O)c2ccc(Br)s2)cc1 | -2.6 | -7 | . | -0.7 | 3.5 | 0.72 | 1
COc1ccc2oc(C(=O)Nc3nc(-c4ccccn4)cs3)c(C)c2c1 | 6.2 | 1 | i | -13 | 0.3 | 0.69 | 12
CC(C)[C@H](NC(=O)c1ccccc1Cl)C(=O)OCC(=O)NC(=O)NC1CCCC1 | -1.6 | -3 | i | 5.7 | -3.2 | 0.7 | 5
O=C(Nc1cccc(C(F)(F)F)c1)Oc1ccc(Cl)c2cccnc12 | -0.7 | -8 | i | . | 2.9 | . | 10
c1ccc(OCc2nn3c(-c4cccnc4)nnc3s2)cc1 | -3.5 | 1 | . | 2.9 | 8.9 | 0.66 | -12
COC(=O)C(Cc1c[nH]c2ccccc12)NC(=O)C(C)C (centres undefined) | -2.4 | 7 | . | 4.7 | 2.5 | 0.68 | 4
CCCCCCSc1cc(-c2nc3ccc(C)cn3c2NCCCC)ccc1OC | -0.3 | 2 | i | . | -9.7 | . | 0
Cc1ccc(-n2c(=O)c3sccc3n(Cc3cc(=O)n4ccccc4n3)c2=O)cc1F | . | 3 | i | 0.1 | -0.9 | . | .
O=C(NC1CCCCC1)c1ccc(COc2ccccc2)o1 | -3.1 | 13 | i | 3.3 | 0.4 | 0.7 | -3
O=C1CCCN1c1ccc(S(=O)(=O)NCCc2ccc(Cl)cc2)cc1 | 0.2 | -8 | i | 4.5 | -3.0 | 0.69 | -8
O=C(NC(=S)Nc1ccccc1N1CCCC1)c1ccc(F)cc1 | 4.1 | 25 | . | 9.0 | 0.4 | 0.72 | 7

(next part)
SMILES | HNF4A DNA FP | ALR inh | FGF22 binding | UCH37 inh | LANA-H2A inh | E coli growth | B2AR ag
O=C(/C=C/c1ccccc1)OCc1cnc(Cl)s1 | -3.3 | -17 | i | 0.3 | -1.3 | 0.66 | -4
O=C(CSc1nnnn1-c1ccc(O)cc1)Nc1ccc(N2CCOCC2)c(Cl)c1 | -4.4 | -13 | . | 1.6 | -8.2 | 0.67 | -8
Cc1cc(C)c(NS(=O)(=O)c2ccc3c(c2)n(C)c(=O)n3C)c(C)c1 | -1.4 | -4 | i | 6.1 | 4.4 | 0.69 | -5
COC(=O)[C@@]12CCCCN1[C@H](c1ccc(-c3cccc(Cl)c3)cc1)[C@@H]1C(=O)N(C)C(=O)[C@@H]12 | -1.6 | 1 | i | 1.5 | 2.4 | . | 9
COC(=O)[C@@H](NC(=O)Nc1ccc(OC)cc1)C(C)C | 0.6 | -8 | . | 2.3 | -1.7 | 0.67 | -3
COC(=O)c1c(C)[nH]c(C(=O)/C=C/c2ccccc2F)c1C | 3.3 | 4 | i | -7.6 | 11 | 0.63 | 2
N#Cc1ccccc1OCC(=O)OCCCOC(=O)COc1ccccc1C#N | -3.7 | -2 | i | 0.0 | -2.4 | 0.68 | 9
Cc1ccc(C)c(OCCC(=O)NNC(=O)c2ccncc2)c1 | 2.1 | -3 | i | 1.0 | -9.7 | 0.7 | 0
CCOC(=O)C1C(c2ccc([N+](=O)[O-])cc2)C2C(=O)NN=C2CC1(C)O (centres undefined) | 1.6 | 13 | i | 5.6 | 1.2 | 0.63 | 1
O=C(NCCCN1CCN(c2ccccc2F)CC1)C1CCCN(S(=O)(=O)c2cnc[nH]2)C1 (centres undefined) | -1.8 | . | i | 5.1 | . | 0.69 | -4
Cc1ccc(NC(=O)CCNC(=O)c2ccc([N+](=O)[O-])cc2)cc1C | 0.5 | -5 | i | 4.4 | 2.7 | 0.68 | -2
COc1ccc(NC(=O)CN2CCN(c3ccccc3F)CC2)cc1 | -0.8 | . | . | 3.4 | -0.6 | 0.72 | 3
Cc1cc(C(=O)N/N=C/C(Cl)=C/c2ccccc2)c(C)o1 | 0.9 | . | i | . | -5.9 | . | 7
NC(=O)[C@H]1CC2(CC(c3cccc(NC(=O)[C@H]4CCC(=O)N4)c3)=NO2)CN1C(=O)c1cc([N+](=O)[O-])cc([N+](=O)[O-])c1 (some centres undefined) | 0.8 | . | i | 0.0 | -0.2 | . | 4
